High-throughput results from PubChem BioAssay.
HNF4A DNA FP = change in binding of human HNF4 alpha to DNA; AID 1224865; activity change, % at 10 µM; 360,000 compounds, 0.3% hits; HNF4a-FITC DNA binding, fluorescence polarization, 1 h; P41235; in the data active = activity change above about 30%, passing the limit was not always enough;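 note: controls were the assay level and a saturating level of protein; the project sought stronger binding though the title names inhibitors; some compounds called inactive have numbers as strong as hits; positive values seem to mean higher polarization but the record does not say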
Target sequence (P41235 whole entry, looked up): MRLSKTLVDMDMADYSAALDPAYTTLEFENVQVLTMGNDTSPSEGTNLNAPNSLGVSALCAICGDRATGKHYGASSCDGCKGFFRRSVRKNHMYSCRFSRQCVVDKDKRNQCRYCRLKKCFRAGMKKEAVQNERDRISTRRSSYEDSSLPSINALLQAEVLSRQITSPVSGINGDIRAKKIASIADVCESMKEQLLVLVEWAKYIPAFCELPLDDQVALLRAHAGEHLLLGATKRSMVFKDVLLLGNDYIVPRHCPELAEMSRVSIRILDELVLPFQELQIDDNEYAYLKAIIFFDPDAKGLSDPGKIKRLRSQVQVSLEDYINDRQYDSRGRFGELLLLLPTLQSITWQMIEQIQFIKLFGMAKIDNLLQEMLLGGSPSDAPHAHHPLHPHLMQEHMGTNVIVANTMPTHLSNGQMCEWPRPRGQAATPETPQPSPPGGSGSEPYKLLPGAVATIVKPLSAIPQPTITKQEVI
AF4-AF9 inh = MLL-AF4/AF9 protein interaction inhibition; P42568; AlphaScreen, biotin-AF4 peptide binding to FLAG-AF9; inhibition, % at 10 µM; 350,000 compounds, 0.47% hits; AID 651704;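 active = every replicate reaching a set inhibition limit, whatever the replicate mean, cut at about 25% in these data; inconclusive = mean inhibition reaches that limit but some replicates miss it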;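 note: 0% = plate neutral control median and 100% = total signal loss; the record names both 10 and 1 µM as test concentration; the first replicate is given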
FGF22 binding = FGF22 (human) thermal shift binding. Q9HCT0. recombinant FGF22 thermal shift, SYPRO orange fluorescence; percent of sucrose octasulfate shift, DMSO zero. calls only at 9.99 µM. 340,000 compounds, 1.5% hits. AID 651658;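 active = melting point raised past a set limit in the mean and every replicate; inconclusive = no clear call; three in four hits are not shown here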
Target sequence (Q9HCT0 whole entry, looked up): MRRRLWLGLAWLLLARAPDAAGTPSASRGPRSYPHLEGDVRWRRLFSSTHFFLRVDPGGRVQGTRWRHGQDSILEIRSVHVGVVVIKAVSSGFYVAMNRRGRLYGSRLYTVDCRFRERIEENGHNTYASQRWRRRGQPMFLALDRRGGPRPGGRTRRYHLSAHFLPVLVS
Vif A3G = inhibitors of Vif binding to APOBEC3G peptide, primary screen, biochemical, TR-FRET, GST-Vif 1-94, biotin-A3G peptide, dose response retest (AID 1117319) | TR-FRET GST-Vif / biotin-A3G peptide binding; higher % means a stronger effect; test concentration not given here; strong numbers were not always called active | inhibition, %, or IC50 in µM where a hit was titrated | 260,000 compounds, 0.57% hits;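 active = above the screen mean plus three standard deviations and confirmed in dose response; inconclusive = results disagree or hit not tested in dose response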;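 note: Vif residues 1-94 fused to GST binding biotinylated APOBEC3G peptide 110-148; 0% = full assay without inhibitor and 100% = GST in place of GST-Vif; retest series ran down from 100 µM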
Ecoli rRNA inh = selective bacterial rRNA inhibition in E. coli; E. coli WT GFP vs humanized-ribosome RFP mutants, fluorescence, 24 h; stronger effect = lower value; DMSO median 0, no signal -100; GFP signal change (wild-type ribosome), % (no concentration beside the values); 350,000 compounds, 1.6% hits; AID 720706;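 active = significant combined selectivity score with lowered wild-type GFP, culture density cut under 30%, mutant RFP and density less affected; inactive = any of these conditions unmet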; note: one replicate is shown; some compounds called inactive have numbers as strong as hits
ALR inh = blocks human ALR sulfhydryl oxidase activity. 290,000 compounds, 3.8% hits. P55789. inhibition, % (no concentration beside the values). purified ALR, DTT oxidation, H2O2 HRP-luminol luminescence;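 active = mean and each replicate at 75% or more; inconclusive = only one of the two met; inactive = neither met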;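 note: stock transfer was 7.5 nL into about 7.5 µL; 0% = neutral wells and 100% = wells with inactivated enzyme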
Target sequence (P55789 whole entry, looked up): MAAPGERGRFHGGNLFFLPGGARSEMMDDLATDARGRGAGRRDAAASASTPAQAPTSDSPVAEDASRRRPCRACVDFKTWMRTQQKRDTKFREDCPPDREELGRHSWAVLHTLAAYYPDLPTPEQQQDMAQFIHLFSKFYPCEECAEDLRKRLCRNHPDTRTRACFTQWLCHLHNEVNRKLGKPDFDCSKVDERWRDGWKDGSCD
E coli growth = inhibitors of Escherichia coli growth. AID 1053175. 330,000 compounds, 0.21% hits. OD600, 23 h; stronger effect = lower value. OD600 absorbance (no concentration beside the values);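 active = OD600 absorbance below the run mean of sample wells minus 3.6 SD, in any replicate, cut at about 0.56 in these data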;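 note: stock transfer was 300 nL into about 60 µL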
Ecoli rRNA inh OD600 = also measured in Ecoli rRNA inh; calls as there; OD600 change, %; measured here: OD600 growth;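 optical density of the mix in the first replicate; 0 = DMSO median and -100 = no signal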
Ecoli rRNA inh RFP = second read-out of Ecoli rRNA inh, no call of its own (marks repeat the call); RFP signal change, %; measured here: RFP humanized mutant strains;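 first replicate; 0 = DMSO median and -100 = no signal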
Numbers without * were called inactive; i = inactive; ? = inconclusive; nt = no result given; + = active, no number. Some of the compounds tested; the hit share may differ from the screen's.

SMILES	HNF4A DNA FP	AF4-AF9 inh	FGF22 binding	Vif A3G	Ecoli rRNA inh	Ecoli rRNA inh OD600	Ecoli rRNA inh RFP	ALR inh	E coli growth
CCCNC(=O)C(Cc1ccccc1)NC(=O)c1cccc([N+](=O)[O-])c1 (centres undefined)	5.2	-1.1	i	nt	3	5	-4.7	0	0.65
CC(=O)c1cccc(NC(=O)C2C3C=CC(C3=C(c3ccccc3)c3ccccc3)C2C(=O)O)c1 (centres undefined)	-4.2	-13	i	-5%	-8	-5	0.9	4	0.72
CCC(Sc1ccc(Cl)cc1)C(=O)Nc1nnc(-c2cccc([N+](=O)[O-])c2)s1 (centres undefined)	-3.5	-1.2	i	-3%	3	16	-2.5	-5	0.82
C[C@@H]1CN([C@H](C)CO)C(=O)c2cccc(NC(=O)CCCCCC(=O)Nc3ccccc3N)c2O[C@H]1CN(C)S(C)(=O)=O	nt	-2.8	i	nt	6	7	-2.3	nt	nt
C[C@H]1CCCCO[C@H](CN(C)C(=O)c2ccncc2)[C@@H](C)CN([C@@H](C)CO)C(=O)c2cc(NS(=O)(=O)c3cn(C)cn3)ccc2O1	nt	-5.2	i	nt	2	7	-0.9	nt	nt
C[C@H](CO)N1C[C@H](C)[C@@H](CN(C)Cc2ccc(F)cc2)Oc2cc(C#CC3CC3)ccc2S1(=O)=O	nt	0.6	i	nt	2	4	-1.3	nt	nt
C[C@H]1CN([C@@H](C)CO)C(=O)c2cc(C#CCc3ccccc3)cnc2O[C@@H]1CN(C)C(=O)Cc1cccnc1	nt	-20	i	nt	-6	-5	-2.4	nt	nt
Cn1cc(C(=O)N/N=C/c2ccc3c(c2)OCO3)c2ccccc21	5.1	-3.8	i	16%	-1	13	-5.4	-3	nt
C=CCNC(=O)c1onc(CSc2ccccc2C)c1C(=O)O	1.0	-0.1	i	-4%	-20	-1	15	46	0.71
Cc1cccc(NC(=S)NC(=O)/C=C/c2ccco2)c1	13	7.0	+	17µM*	-8	-5	4.9	28	0.74
CN(Cc1cccc(F)c1)C(=O)c1cc(S(=O)(=O)N2CCOCC2)ccc1N1CCCC1	2.0	1.3	i	-4%	-10	-9	2.8	1	0.68
CC(C)Cn1c(N)c(C(=O)COC(=O)c2cccn2C)c(=O)n(C)c1=O	-2.2	3.2	i	nt	1	-1	0.2	3	0.63
O=C1NN(c2cccc(Br)c2)C(=O)/C1=C\c1ccc(O)cc1	-3.4	-0.1	i	-1%	-3	-5	1.5	98*	nt
CC(Oc1ccc(C(=O)NCCc2ccccc2)cc1)C(=O)O (centres undefined)	2.3	nt	nt	-2%	nt	nt	nt	-3	0.73
Cc1ccc(NC(=O)CCc2nnc3ccc(NCc4ccco4)nn23)cc1F	-2.1	1.6	i	nt	-1	-3	1.9	35	0.69
CO[C@@H]1CN(C)C(=O)c2cc(NC(C)=O)ccc2OC[C@@H](C)N(C(=O)c2ccccn2)C[C@@H]1C	nt	-15	i	nt	2	4	-0.3	nt	nt
O=C(c1ccc(N2CCC3(CC2)OCCO3)c([N+](=O)[O-])c1)N1CCOCC1	4.5	-2.5	nt	1%	4	2	1.4	0	0.67
COc1ccc(C#Cc2cnc3c(c2)C(=O)N([C@H](C)CO)C[C@H](C)[C@H](CN(C)C(=O)Nc2ccc(F)cc2)O3)cc1OC	nt	1.7	i	nt	-1	10	0.7	nt	nt
Cc1cc(C)n2c(SCC(=O)Nc3ccccc3C#N)nnc2n1	-1.6	-5.7	i	9%	nt	nt	nt	nt	0.69
O=C(Nc1cccn2ncnc12)C(Cl)Cl	-0.4	nt	nt	0%	nt	nt	nt	-20	0.77
Cn1ncc2c(Nc3ccccc3Cl)nc(Cl)nc21	4.2	-0.9	i	0%	-3	-13	-3.8	-5	0.63
C[C@@H]1CN([C@@H](C)CO)C(=O)c2cc(C#Cc3ccccc3F)cnc2O[C@H]1CN(C)C(=O)Cc1ccccc1	nt	-2.4	i	nt	-2	-15	13	nt	nt
CC(C)(C)NC(=O)C(c1c[nH]c2ccccc12)N(C(=O)Cn1nnc(-c2ccc(F)cc2)n1)c1cccc(O)c1 (centres undefined)	1.5	-3.3	i	10%	nt	nt	nt	nt	0.72
COc1ccccc1N1CCN(/N=C/C(Cl)=C/c2ccccc2)CC1	0.5	?	i	26%	-15	2	-0.8	-3	nt
O=C(Cn1c(=S)[nH]c2ccccc21)c1ccccc1	-2.7	nt	nt	-6%	nt	nt	nt	74	0.69
O=C(O)c1ccc2cc[nH]c2c1	0.6	nt	nt	2%	nt	nt	nt	-3	0.71
CC(=O)c1cccc(NC(=O)CCNS(=O)(=O)c2cccc(C(C)=O)c2)c1	-1.9	nt	nt	18%	nt	nt	nt	-27	0.68
CCCC(C)C(=O)NCc1ccccc1OC (centres undefined)	5.3	nt	nt	4%	nt	nt	nt	-9	0.71
C[C@H]1CN([C@@H](C)CO)C(=O)CCCn2nncc2CO[C@H]1CN(C)C(=O)Nc1ccc(-c2cccs2)cc1	nt	2.6	i	nt	-2	-4	0.8	nt	nt
NC(=S)NN=Cc1ccc(-c2ccc(S(=O)(=O)Nc3ncccn3)cc2)o1	-32	-3.6	i	22%	nt	nt	nt	nt	0.71
CO[C@H]1CN(C)C(=O)c2ccc(NC(=O)Nc3cc(F)ccc3F)cc2OC[C@@H](C)N(C)C[C@H]1C	nt	2.2	i	nt	2	-2	-0.1	nt	nt
C[C@H](CO)N1C[C@H](C)[C@@H](CN(C)Cc2ccc(Oc3ccccc3)cc2)Oc2ncc(-c3cccnc3)cc2C1=O	nt	14	i	nt	5	-14	-2.2	nt	nt
Cc1ccc(S(=O)(=O)N(C)C)cc1NC(=O)C1CCC1	2.1	-2.0	i	3%	14	3	0.0	-1	0.67
O=C(Nc1cccc(S(=O)(=O)N2CCCC2)c1)c1cccc(OC(F)F)c1	0.5	-1.8	i	2%	-6	-9	1.0	-12	0.71
CCOC(=O)c1c(C)oc2c(CC(=O)c3ccccc3)c(Cl)c(O)c(O)c12	2.9	nt	nt	9%	nt	nt	nt	9	0.68
CC1=C/C(=C/N(C)C)C(=O)O1	-2.7	-8.7	i	26%	17	13	7.2	-5	0.61
COc1ccc(-c2noc(CSc3nc(N)c(-c4ccccc4)c(=O)[nH]3)n2)cc1	-3.8	7.0	i	-7%	-11	-7	7.0	46	0.66
CC(O)CNc1nc2c(c(=O)n(Cc3ccc(Br)cc3)c(=O)n2C)n1C (centres undefined)	1.5	0.2	i	nt	-13	-13	-0.6	nt	0.71
CCN1CCN(C(=O)c2cc3c(-c4ccc(Cl)cc4)nn(C)c3s2)CC1	-1.8	6.3	i	0%	-15	-20	3.9	98*	0.72
COC(=O)c1ccc2ccn(CC(=O)NC3CCCCC3)c2c1	3.0	nt	nt	8%	nt	nt	nt	-1	0.75
CCCC(=O)N1CCN(c2ccc(NC(=O)c3sc4ccccc4c3Cl)cc2)CC1	-4.0	nt	nt	-3%	nt	nt	nt	-6	0.7
O=C(OCCN1CCCC1=O)c1cncc(Br)c1	3.8	1.0	i	0%	12	9	-3.6	-10	0.72
CC(C)(CNS(=O)(=O)c1ccc(Br)s1)N1CCOCC1	9.2	1.3	i	nt	nt	nt	nt	-9	0.69
CCC(=O)N(C)C[C@H]1Oc2ncc(-c3ccc(C)cc3)cc2C(=O)N([C@@H](C)CO)C[C@H]1C	nt	-12	i	nt	2	8	1.6	nt	nt
Cc1ccc(C(=O)N/C(=C/c2cccs2)C(=O)NCCc2c[nH]c3ccccc23)cc1	-0.9	2.1	i	nt	-18	-19	-4.9	nt	0.67
Cc1ccn2cc(C34CC5CC(CC(C5)C3)C4)nc2c1	2.7	8.3	i	17%	-22	-30	4.6	-11	0.65
COc1ccc(NC(=O)Cc2cccc(F)c2)cc1S(=O)(=O)Nc1ccccc1Cl	-0.7	2.9	i	29%	-31	-20	19	nt	0.67
CC(C)[C@H](NC(=O)c1ccco1)C(=O)OCC(=O)c1ccc2c(c1)NC(=O)CO2	6.7	0.6	i	31%	-16	-16	-3.0	100*	0.66
O=C(Cn1c(=O)sc2ccccc21)N1CCOCC1	-3.4	nt	nt	-8%	nt	nt	nt	-8	0.7
CCOC(=O)N(C)C[C@@H]1OCc2ccccc2-c2c(n(C)c3ccccc23)C(=O)N([C@@H](C)CO)C[C@H]1C	nt	-5.0	i	nt	-1	3	-3.5	nt	nt
COc1ccc(CCNC(=O)CN(CCc2ccccc2)S(C)(=O)=O)cc1OC	-7.0	0.7	i	-9%	5	-5	-0.1	-4	0.69
COc1ccc(OCC(=O)Nc2cccc(-c3nc4ccccc4o3)c2)cc1	-8.8	nt	nt	-2%	nt	nt	nt	-3	0.67
O=C(NCc1ccc2c(c1)OCO2)C(=O)NCC1CCCO1 (centres undefined)	1.0	-15	nt	9%	5	-2	0.6	0	0.67
COc1ccc2c3c([nH]c2c1)[C@H](CO)N(C(=O)NC(C)C)CC31CN(C(=O)C2CCCCC2)C1	nt	-0.4	i	nt	0	8	-0.2	nt	nt
COCC(=O)N(C)C[C@H]1Oc2ncc(-c3cccc(OC)c3)cc2C(=O)N([C@@H](C)CO)C[C@H]1C	nt	0.2	i	nt	5	10	-0.6	nt	nt
COC(=O)c1cc(Br)c(=O)n(-c2ccccn2)c1	-5.6	nt	nt	2%	nt	nt	nt	-1	0.7
CN1CCN(S(=O)(=O)c2cccc(C(=O)Oc3cccc(Br)c3)c2)CC1	1.4	-29	i	-1%	-11	-4	3.2	5	0.71
CC1=C(C(=O)N(C(C)C)C(C)C)CC(CC(=O)NCC2CCCCC2)C(=O)N1Cc1ccc(F)cc1 (centres undefined)	2.7	-0.4	i	nt	-16	-21	-0.1	nt	nt
O=C(CCC(=O)N1CCOc2ccccc21)NCCCN1CCN(Cc2ccccc2)CC1	1.2	-2.0	i	nt	3	9	1.1	4	0.78
COc1ccc(NC(=O)CSc2nnc(-c3cccs3)n2N)c(OC)c1	6.0	-1.3	nt	7%	5	-2	0.2	-355	0.64
More compounds:
SMILES	HNF4A DNA FP	AF4-AF9 inh	FGF22 binding	Vif A3G	Ecoli rRNA inh	Ecoli rRNA inh OD600	Ecoli rRNA inh RFP	ALR inh	E coli growth
CC(C)NC(=O)Nc1ccc2c(c1)C(=O)N([C@H](C)CO)C[C@@H](C)[C@H](CN(C)C(=O)Nc1ccc(C(F)(F)F)cc1)OCCCC[C@@H](C)O2	nt	-1.4	i	nt	-1	0	-0.5	nt	nt
CO[C@@H]1CN(C)C(=O)c2cc(NS(=O)(=O)CC(F)(F)F)ccc2OC[C@@H](C)N(C(=O)c2ccc3c(c2)OCO3)C[C@@H]1C	nt	0.4	i	nt	-2	1	0.0	nt	nt
COc1ccc(Nc2c3c(nc4c(-c5ccccc5)c(C)nn24)CCC3)cc1	3.5	nt	nt	-17%	nt	nt	nt	-1	0.72
CCCN1C[C@H](C)[C@@H](OC)CN(C)C(=O)c2ccc(NC(=O)Nc3cccc(F)c3)cc2OC[C@H]1C	nt	5.1	i	nt	-12	-7	5.7	nt	nt
COc1ccc(C/C(N)=N/OC(C)=O)cc1OC	-6.5	4.4	i	nt	11	10	-0.2	-16	0.7
CC(C)(C)NC(=O)C(=O)NN=C1CCCCCCC1	3.0	-3.5	i	-2%	22	14	-4.2	-7	0.67
C[C@H](CO)N1C[C@H](C)[C@@H](CN(C)C(=O)Nc2ccc(F)cc2)Oc2c(NC(=O)Nc3ccc(C(F)(F)F)cc3)cccc2C1=O	nt	2.6	i	nt	2	2	-1.5	nt	nt
